# S aureus helic: blocks Staphylococcus aureus DNA helicase | purified S. aureus helicase, fluorescence unwinding assay; about half of the hits fall short of the stated cut | inhibition, %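 (tested at about 80 µM)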 | hit rate 0.05% among 120,000 | AID 485395;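 active means both duplicates at 50% or more, or one of them with a favoured structure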;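 further: 0% = mean of negative control wells and 100% = mean of positive control wells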
# MgrA DNA FP: S. aureus MgrA-DNA binding modulation | fluorescence polarization | inhibition, %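 (about 10 µg/mL by stock and volumes)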 | hit rate 0.13% among 84,000;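 active means above 50% in either of two replicates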;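 further: 0% = protein plus DNA without compound and 100% = DNA alone without protein; higher means less MgrA bound to DNA so lower polarization; one replicate is shown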
# Numbers without * were called inactive; . = no result given; & = joins results of further samples. These rows are one share of the data; count on the stated rates, not on these rows.
Structure,S aureus helic,MgrA DNA FP
CCOC(=O)c1c(C)[nH]c(C)c1C#N,2,.
CCC(=O)c1cn(CC(=O)NCc2ccco2)c2ccccc12,2,.
CC(NC(=O)c1c(O)c2ccccc2[nH]c1=O)c1ccccc1 (stereo not drawn),6,.
Cc1cc(OC(=O)c2cccc(F)c2)n(-c2ccccc2)n1,.,2.0
CCOC(=O)c1c(C)oc2c1c(C=NCc1ccco1)c(O)c1ccccc12,7,.
CCCCOC(=O)Nc1ccc(N2CCOCC2)cc1,-37,.
CNC(=S)NCc1ccco1,.,-1.1
N#Cc1cnn(-c2ccccc2)c1-n1cccc1,.,0.7
CCN1CCN(C(=O)C(C)Sc2nnc(-c3cccc(Cl)c3)n2CC)CC1 (stereo not drawn),-8,.
CCS(=O)(=O)N1CCN(c2ccccn2)CC1,6,1.0
c1cc2c(cc1-c1cnc3n1CCC3)OCCO2,-1,-0.9
CCn1cc(C(=O)N2CCN(c3ccc(F)cc3)CC2)c2cc(OC)c(OC)cc2c1=O,-19,.
O=C(NCc1cccs1)c1ccc(CSc2nc3ccncc3[nH]2)cc1,-1,.
CC(=O)NC12CC3CC(CC(CC(=O)O)(C3)C1)C2,0,.
C=CCNC(=O)COc1ccc2c(c1C)OC(C)(C)CC2=O,.,3.7
CC1(c2ccccc2)NC(=O)N(CN2CCN(S(=O)(=O)/C=C/c3ccccc3)CC2)C1=O (stereo not drawn),22,.
Cc1ccc(C(=O)OCC(=O)N2CCc3ccccc32)c(C)c1,-10,-1.3
O=C(NCc1ccc2c(c1)OCO2)c1cccc2c1OCCCO2,.,-2.1
O=C(O)c1ccc(CN2C(=O)c3ccc(C(=O)O)cc3C2=O)cc1,10,-1.0
Cc1ccc(CC(C#N)Sc2nc3ccccc3o2)cc1 (stereo not drawn),-11,.
O=C(NCc1nnc(SCc2ccc(Br)cc2)n1-c1ccc(F)cc1)c1ccco1,-7,.
CN(c1ncnc2sc(-c3ccccc3)cc12)C1CCS(=O)(=O)C1 (stereo not drawn),-6,.
CN1CCC(N(C)C(=O)c2cc3cc(Br)cc(Br)c3o2)CC1,-9,.
CCOc1ccc(-c2cc(C(F)(F)F)c(C#N)c(SCC)n2)cc1,3,1.3
Cn1c(SCC(=O)c2ccccc2)nnc1C1COc2ccccc2O1 (stereo not drawn),.,3.0
N#Cc1sc2sc(C#N)c(-c3ccc(Cl)cc3)c2c1N,.,-2.2
CN(C)CCCNc1cn[nH]c(=O)c1Cl,-10,2.1
CCc1ccccc1NC(=O)NC1CCCC1,4,0.2
Cc1noc(C)c1CSc1ncnc2sc3c(c12)CCCC3,6,.
Brc1ccc(-c2csc(-c3cnccn3)n2)cc1,.,-0.5

# Additional compounds follow.
Structure,S aureus helic,MgrA DNA FP
O=C(CCN1CCOCC1)Nc1cc(C(F)(F)F)ccc1Cl,.,-1.5
CC(NC(=O)c1ccc(F)cc1)C(c1ccccc1)N1CCN(C)CC1 (stereo not drawn),-12,-0.8
CCCN1CCC(NC(=O)Nc2cccc3ccccc23)CC1,12,7.0
O=C(COc1cccc2ccccc12)N1CCc2ccccc2C1,-23,7.0
COc1cccc(N2CCN(C(=O)C3C4C=CC5(CN(Cc6ccccc6Cl)C(=O)C35)O4)CC2)c1 (stereo not drawn),1,.
Nc1c(C(=O)O)sc2nc(C3CC3)cc(-c3ccc(Cl)cc3)c12,18,.
CCn1c(SCCN2CCCC2)nnc1C1CCCN(C(=O)c2ccc3c(c2)OCO3)C1 (stereo not drawn),9,0.4
O=c1[nH]n(-c2ccc(S(=O)(=O)N3CCCC3)cc2)c(=O)c2ccccc12,-21,.
Cc1c(N=C/C=C2\N(C)c3ccccc3C2(C)C)c(=O)n(-c2ccccc2)n1C,0,.
O=C(C1CSC2(c3ccc(F)cc3)CCC(=O)N12)N1CCCCCC1 (stereo not drawn),1,.
CCC(C(=O)Nc1nnc(C2CC2)s1)c1ccccc1 (stereo not drawn),13,0.6
O=C(Nc1cc(C(F)(F)F)ccc1N1CCCCC1)c1ccncc1,-7,.
CCC(=O)C1=C(c2ccccc2)N(C(=O)CC)n2cnnc2S1,11,.
CCCCn1c(=O)[nH]c(=O)c2c1nc(-c1cccs1)c(=O)n2C,-203,.
CC(=O)c1sc2ccc(Cl)cc2c1C,.,-2.9
CC(C)(C)C(=O)CSc1nc2ccccc2o1,1,-4.2
CCOc1cc(C2C3=C(CC(C)(C)CC3=O)Nc3ccccc3N2C(C)=O)ccc1OC(C)=O (stereo not drawn),.,0.0
CCOC(=O)N1CCN(C(=O)c2ccc(CS(=O)(=O)c3ccc(OC)cc3)o2)CC1,6,.
CC(Oc1ccccc1)C(=O)N1c2ccccc2CC1C (stereo not drawn),-20,0.2
NC(=O)C1CCN(C(=O)c2cccc(CN3C(=O)c4ccccc4C3=O)c2)CC1,-11,.
COc1ccc(C2CC(c3c(-c4ccccc4)c4cc(Cl)ccc4[nH]c3=O)=NN2C(C)=O)cc1 (stereo not drawn),.,2.0
O=C1CC(c2nc3ccccc3n2C/C=C/c2ccccc2)CN1c1ccc(Cl)cc1 (stereo not drawn),9,0.1
COc1ccc2cc(C#N)c(N3CCCN(C(=O)/C=C/C(=O)O)CC3)nc2c1,3,-3.0
CCN(C(=O)CSc1ncn[nH]1)c1cccc2ccccc12,15,-2.0
O=C(O)CC1(CC(=O)NCc2ccccc2F)CCCCC1,-16,.
N#CC1=C(SCc2ccccc2)NC(=O)C(C#N)C12CCCC2 (stereo not drawn),8,1.2
O=C1CCCC(O)=C1C=NCc1cccnc1,2,7.6
Cc1ccc(O)c(C2=Nc3ccccc3N=C(c3ccco3)C2)c1,6,-2.4
CC1CC(C)CN(C(=O)/C=C/c2ccc(Cl)cc2)C1 (stereo not drawn),4,1.0
Cc1c(C(=O)Sc2ccccc2)sc2nc(C(F)(F)F)nn12,.,3.5

# (cont.)
Structure,S aureus helic,MgrA DNA FP
O=C(CC(c1ccccc1)c1ccccc1)Nc1ccc(Cl)cc1,7,1.9
N[C@@H](CO)CSCc1ccccc1,.,0.3
O=C(Nc1cccc(Oc2ccccc2)c1)C1CCC1,-5,.
CN(C)CCOC(=O)CN1C(=O)S/C(=C/c2ccc(Br)cc2)C1=O,.,6.0
Cc1ccc2nc(-c3ccc(NC4=CC(=O)CCC4)cc3)sc2c1,-1,1.1
O=C(Nc1cccc(C(F)(F)F)c1)N1CCN(Cc2ccccc2)CC1,18,-8.7
O=C(Nc1nnc(Cc2ccccc2)s1)c1ccncc1,-12,.
CC(CC(=O)N1CCc2ccccc2C1)CC1=NS(=O)(=O)c2ccccc2N1 (stereo not drawn),10,0.6
c1ccc2c(c1)OC1(CCCCC1)O2,-5,.
Cc1ccc(CNC(=O)C2CCN(S(=O)(=O)c3ccc4nc(-c5ccccc5)[nH]c4c3)CC2)cc1,2,0.4
COc1ccccc1CNc1nc2c(-c3cccc(C)c3)nnn2c2ccccc12,19,-1.4
Cc1onc(-c2c(Cl)cccc2Cl)c1C(=O)ON1C(=O)CCC1=O,.,1.2
NC(=O)c1cc2ccccc2oc1=NCc1ccccc1,-11,.
CSCCSc1nnc(C)n1C1CCCCC1,5,.
COc1cc(NC(=O)CNC(C)C)cc(OC)c1,-16,.
COc1ccc(C2SCC(=O)N2c2ccc(Br)cc2)cc1 (stereo not drawn),-8,-0.8
Cc1ccc(S(=O)(=O)CCSc2ncccn2)cc1,.,-2.3
CC1CCCN(CN2C(=O)C3(OCCO3)c3ccccc32)C1 (stereo not drawn),.,1.4
CC1CN(C(=O)C(C)N2CCc3ccccc3C2)CC(C)O1 (stereo not drawn),-15,.
COc1cc(SC)ccc1C(=O)Oc1ccccc1C,8,.
Cc1ccc(Cl)cc1NC(=O)CC(C(=O)O)N1CCN(C)CC1 (stereo not drawn),2,.
CCc1ccc(OCCSc2nc3ccccc3n2CC(=O)O)cc1,.,-0.9
CSc1nc2n(n1)C(C)C1=C(CCCC1=O)N2 (stereo not drawn),1,0.8
CCC(C(N)=O)(c1ccccc1)c1ccc([N+](=O)[O-])cc1 (stereo not drawn),.,1.0
N#Cc1ccccc1Cn1c(=O)n(CCCC(=O)NC2CCN(Cc3ccccc3)CC2)c(=O)c2ccccc21,-27,.
c1ccc(-c2nc(Sc3ncnc4c3cnn4-c3ccccc3)n[nH]2)cc1,9,1.8
CCOc1cc(C2C(C(=O)OCCSCC)=C(C)NC3=C2C(=O)CC(c2ccc(OC)cc2)C3)ccc1O (stereo not drawn),.,0.4
Cc1cc(NS(=O)(=O)c2ccc3[nH]c(=O)ccc3c2)ccc1Br,4,2.0
Nc1ncnc2c1cnn2Cc1ccccc1,-1,-0.5
Cc1c(C)c(C)c(C(=O)c2ccc(Cl)cc2)c(C)c1C,.,-2.8

# Next part
# Under each structure: S aureus helic | MgrA DNA FP
N#Cc1nc(COc2ccccc2Cl)oc1N1CCCC1
 : 4 | .
CC(C)C(N)C(O)(c1ccccc1)c1ccccc1 (stereo not drawn)
 : . | -0.7
NNC(=O)c1cc2ccccc2cc1O
 : 22 | .
COc1ccc2cc(CN(Cc3nnnn3Cc3ccccc3)C3CCCC3)c(=O)[nH]c2c1
 : 3 | 4.2
N#Cc1c(SCC(=O)Nc2nccs2)nc(N2CCOCC2)c2c1CCCC2
 : 10 | 1.5
N#Cc1cc(C#N)c(SCC(=O)N2CC(=O)Nc3ccccc32)nc1N
 : -21 | .
CC1CC(O)NN=C1c1ccc2nc(COc3ccccc3O)[nH]c2c1 (stereo not drawn)
 : 10 | .
COc1cccc(C(=O)Nc2cccc(N=C(N)CCC(=O)O)c2)c1
 : 9 | -2.0
Cc1oc(-c2ccccc2)nc1CSc1nncn2c1cc1occc12
 : 1 | 2.2
O=C(Cn1c(N2CCCCC2)nc2ccccc21)c1ccccc1
 : -17 | 2.6
O=C1OC2(CCCC2)OC(=O)C1=Cc1c[nH]c2ccccc12
 : -4 | 1.9
CC1CCCC(C)N1C(=O)c1cc2cccnc2n(Cc2ccccc2)c1=O (stereo not drawn)
 : 11 | .
CCOC(=O)c1cc2c(=O)n3cc(C)ccc3nc2n(Cc2ccco2)c1=N
 : 18 | 7.8
C=CCNC(=O)CCN1c2ccccc2Sc2ccccc21
 : -13 | .
O=C(C1Cc2ccccc2CN1C(=O)c1ccco1)N1CCc2ccccc21 (stereo not drawn)
 : 10 | .

# The last 2 entries of the part before are carried over, then new ones follow:
# Under each structure: S aureus helic | MgrA DNA FP
C=CCNC(=O)CCN1c2ccccc2Sc2ccccc21
 : -13 | .
O=C(C1Cc2ccccc2CN1C(=O)c1ccco1)N1CCc2ccccc21 (stereo not drawn)
 : 10 | .
CCc1cccc2c(C#N)cn(CC(=O)N(CC)CC)c12
 : 2 | 0.9
O=C(NCc1ccccn1)c1ccc(CSc2nc3ccncc3n2Cc2ccc(F)cc2)cc1
 : -1 | .
N/C(=N\OC(=O)c1ccc2ncsc2c1)c1ccccc1
 : -18 | .
COc1ccc2ccccc2c1C=Nc1ccccc1C#N
 : 19 | 0.8
O=C(CSc1cccc(C(F)(F)F)c1)Nc1ccc(F)cc1F
 : . | -0.7
O=C(C1CCCO1)N1CCN(C/C=C/c2ccccc2)CC1 (stereo not drawn)
 : 1 | -1.5
COc1ccc(-c2ccc(/C=C3\C(=O)N(c4cccc(Br)c4)N=C3C)o2)cc1[N+](=O)[O-]
 : . | 0.3
CC(=O)N1c2ccccc2NC(=O)C1CC(=O)Nc1cccc(C)c1 (stereo not drawn)
 : -5 | 2.3
C=C(CC)C(=O)c1ccc(OCC(=O)O)c(Cl)c1Cl
 : . | 8.1&9.5
CC(C)NS(=O)(=O)c1ccc(Cl)s1
 : 3 | 0.9
NC(C(=O)O)c1ccc(CCCC(=O)O)s1 (stereo not drawn)
 : 5 | 2.4
CCOc1ccc2[nH]c(=O)c(CN(CCOC)C(=O)Nc3ccccc3C)cc2c1
 : 0 | 0.5
CC(=O)Nc1ccc(OC(=O)c2cccc(Cl)c2)cc1
 : . | 0.0
CCN1CCc2nc(NC(=O)c3ccccc3)sc2C1
 : -6 | -2.7
O=C(CCCC(=O)N1CCCc2ccccc21)N1CCCc2ccccc21
 : 1 | 4.0

# Next part
# Under each structure: S aureus helic | MgrA DNA FP
COc1nccc(C(F)(F)F)c1C(=O)NC(=O)Nc1c(C)cccc1C
 : . | -0.2
Cn1c(=O)[nH]c(=O)c2c1nc(N1CCCC1)n2CCCc1ccccc1
 : 2 | .
CC(C)N1C(=O)CCC1C(=O)N1CCN(c2ccc(F)cc2)CC1 (stereo not drawn)
 : 8 | .
O=C1NC(=S)N(c2ccc(Br)cc2)C(=O)/C1=C/c1ccsc1
 : 10 | 24
CN(C)CCC(O)(CCc1ccccc1)c1ccccc1 (stereo not drawn)
 : . | -1.7
O=C(Oc1ccccc1N(C(=O)c1ccccc1)S(=O)(=O)c1ccccc1)c1ccccc1
 : 11 | 2.2
c1ccc(-n2nnnc2SCC2CCCCO2)cc1 (stereo not drawn)
 : 2 | .
CN(C)C(Cl)=Nc1ccccc1
 : -11 | .
Cn1c(=O)c2c(-c3ccc(Cl)cc3)n(C3CCCCC3)cc2n(C)c1=O
 : 23 | .
Cc1cc(C)c(C#N)c(OCC(=O)Nc2ccccc2)n1
 : . | -2.5
Cc1sc2ncnc(NC3CCN(Cc4ccccc4)CC3)c2c1C
 : -6 | .
O=c1[nH]c(SCCN2CCOCC2)nc(O)c1-c1ccccc1
 : 8 | .

# Single records, from the list above.
# CC(C)N1C(=O)CCC1C(=O)N1CCN(c2ccc(F)cc2)CC1 (stereo not drawn) as listed: S aureus helic = 8; MgrA DNA FP = .
# Cc1sc2ncnc(NC3CCN(Cc4ccccc4)CC3)c2c1C as listed: S aureus helic = -6; MgrA DNA FP = .

# Gathered by group, the entries above containing a nitro group on carbon
# Under each structure: S aureus helic | MgrA DNA FP
CCC(C(N)=O)(c1ccccc1)c1ccc([N+](=O)[O-])cc1 (stereo not drawn)
 : . | 1.0
COc1ccc(-c2ccc(/C=C3\C(=O)N(c4cccc(Br)c4)N=C3C)o2)cc1[N+](=O)[O-]
 : . | 0.3

# Screening results deposited in PubChem BioAssay by ICCB-Longwood Screening Facility, Harvard Medical School.
